Screening data (PubChem BioAssay)
miR-21 reporter: miR-21 reporter, rising signal | HeLa miR-21 FLuc reporter, luciferase, 48 h | Potency, µM (series often up to 38.3 µM), for inactives: at the highest dose reporter change, positive = more light | 340,000 tested, under 10 active; active = well fitted rising curve with a large enough effect; inconclusive = small, poorly fitted or top-dose-only effect; inactive = no such curve, though single readings can be large or run the other way;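 further: % of control where 0% means no effect; miR-21 action dims this reporter so a rising signal means less miR-21 action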
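Compounds were titrated across several concentrations (up to approximately 40 uM) and incubated 48 hours with HeLa miR-21-FLuc reporter cells (miR-21 target sequence downstream of FLuc, endogenous miR-21). Readout was firefly luciferase luminescence after lytic detection reagent.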
GLA inh pH 4.5: alpha-galactosidase A (human) inhibition, pH 4.5; P06280; purified enzyme, 4-MU-alpha-Gal fluorescence, pH 4.5; activity change, negative = inhibition, % at 105 µM; 230,000 tested, under 10 active; AID 1467; inconclusive = small, poorly fitted or top-dose-only inhibition, or a rising curve; inactive = flat fitted curve, though single readings scatter; no compound was filed as active;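 further: 0% = full activity with enzyme and -100% = basal without enzyme; dose as in the result columns while the protocol names 77 µM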
Rango dissoc inh: inhibition of RanGTP-driven Rango-importin beta dissociation | O95149+P62826 | Biochemical FRET Rango-importin beta, RanGTP-induced dissociation | Potency, µM (titrated, usually from 46.1 µM), inactives show top-dose activity change, negative = inhibition | 0.071% of 340,000 active; active means falling FRET ratio curve, often poorly fitted, with flat reads before Ran was added; inconclusive means other falling curves, or compound fluorescence or quenching; inactive means flat or rising ratio curve;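 further: potency means the concentration at half of the fitted maximal effect; % of control where 0% means no effect; nearly all actives have a fitted effect of over 45% in size; -100% = wells without RanGTP and RCC1; the record marks most hits as doubtful in a second field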
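Quantitative HTS using a FRET biosensor: 0.1 uM Rango, 0.25 uM importin beta, 0.6 uM Ran, 2 mM GTP, 0.2 uM RCC1 final, PBS with DTT, Tween-20 and BSA. Post-read taken 45 min after Ran addition.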
Rango complex inh: inhibitors of Rango-importin beta complex formation; Q14974; Rango CFP/YFP FRET sensor + importin beta, 45 min; Potency, µM (series often up to 92.2 µM), for the others: at the highest dose inhibition of complex formation; 0.031% of 340,000 active; AID 540263; active = rising FRET ratio curve, often small or poorly fitted; inconclusive = mostly compound fluorescence or quenching in the first reads; inactive = flat curves in all reads;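 further: potency means the concentration at half of the fitted maximal effect; 0% = DMSO wells and 100% = buffer wells lacking importin beta; nearly all actives have a fitted effect of over 15% in size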
Target sequence (Q14974 whole entry, looked up): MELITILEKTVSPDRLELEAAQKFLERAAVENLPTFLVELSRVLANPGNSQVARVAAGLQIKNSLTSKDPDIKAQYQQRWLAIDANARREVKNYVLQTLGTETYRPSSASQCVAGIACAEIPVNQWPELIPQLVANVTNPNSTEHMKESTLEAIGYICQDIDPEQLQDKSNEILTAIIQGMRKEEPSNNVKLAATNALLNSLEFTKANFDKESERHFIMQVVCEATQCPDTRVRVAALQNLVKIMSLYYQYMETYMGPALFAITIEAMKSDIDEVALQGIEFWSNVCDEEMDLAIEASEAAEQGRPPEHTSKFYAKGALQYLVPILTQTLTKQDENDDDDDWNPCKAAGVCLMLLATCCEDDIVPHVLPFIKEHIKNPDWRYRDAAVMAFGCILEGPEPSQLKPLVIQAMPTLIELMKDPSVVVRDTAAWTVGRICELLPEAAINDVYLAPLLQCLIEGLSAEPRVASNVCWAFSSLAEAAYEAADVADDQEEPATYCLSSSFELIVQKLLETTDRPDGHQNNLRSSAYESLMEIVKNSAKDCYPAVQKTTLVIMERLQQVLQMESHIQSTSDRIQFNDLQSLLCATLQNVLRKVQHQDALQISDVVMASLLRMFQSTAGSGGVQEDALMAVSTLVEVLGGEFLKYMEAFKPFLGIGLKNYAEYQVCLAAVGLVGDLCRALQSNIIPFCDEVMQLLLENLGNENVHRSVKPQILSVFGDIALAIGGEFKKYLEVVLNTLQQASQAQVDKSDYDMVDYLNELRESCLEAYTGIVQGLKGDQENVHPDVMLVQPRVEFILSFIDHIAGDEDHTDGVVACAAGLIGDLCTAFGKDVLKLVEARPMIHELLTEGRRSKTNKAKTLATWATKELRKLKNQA
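Inhibition scored from the CFP 486 nm/YFP 530 nm FRET ratio 45 min after adding 0.125 microM importin beta to 50 nM Rango biosensor preincubated 5 min with compound (room temperature, PBS with DTT, Tween-20, BSA). No-importin wells as positive control.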
* marks the source's active call; other numbers are inactive results; u = inconclusive; x = no result given; & = joins results of further samples.

structure	miR-21 reporter	GLA inh pH 4.5	Rango dissoc inh	Rango complex inh
N#C/C(=C/c1cccn1-c1cccc(C(=O)O)c1)c1ccc(Cl)cc1	-2%	-1	-9%	-4.5%
CCC(C)N(CCNC(=O)c1ccc2c(c1)NC(=O)c1ccccc1S2)C1CCCCC1 (stereo not drawn)	0%	x	-12%	4.1%
COc1cc(C(=O)N2CCN(S(=O)(=O)c3ccc(C)cc3C)CC2)ccc1OCC(=O)N1CCOCC1	x	x	14%	-1.1%
COc1cccc2cc(C(=O)NCc3ccccc3Cl)c(=O)oc12	0%	x	-4%	-1.1%
O=c1c(OC2OC(CO)C(O)C(O)C2OC2OC(CO)C(O)C(O)C2OC2OC(CO)C(O)C(O)C2O)c(-c2ccc(O)c(O)c2)oc2cc(O)cc(O)c12 (stereo not drawn)	-8%	-6	-18%	1.6%
CCOc1ccccc1NC(=O)C1CCCN1C(=O)c1cccs1 (stereo not drawn)	x	x	-1%	6.3%
Cn1c(=S)[nH]c2scc(-c3cccs3)c2c1=O	0%	0	-12%	1.1%
Cc1ccccc1C(=O)N1CCN(c2ccc(NC(=O)c3cccnc3Cl)cc2)CC1	12%	0	8%	2.0%
COC(=O)c1c(NC(=O)C2C3CCC(O3)C2C(=O)O)sc2c1CCCCCC2 (stereo not drawn)	-18%	3	7%	4.9%
CCCCn1c(SCC(=O)NC(C)CC)nc2ccc(N3CCOCC3)cc2c1=O (stereo not drawn)	-3%	-1	-2%	-0.6%
C[C@@H](C(=O)N1CCN(c2ccccc2)CC1)N1C(=O)C2CC=CCC2C1=O (stereo partly drawn)	x	x	-9%	-1.2%
Clc1ccccc1N1CCN(Cc2ccco2)CC1	-11%	x	2%	-0.8%
Cc1ccccc1NC(=S)NC(NC(=O)N(C)C)C(Cl)(Cl)Cl (stereo not drawn)	1%	-6	-10%	-5.5%
O=C1CSC(c2ccc(Cl)cc2)N1 (stereo not drawn)	0%	-17	-13%	2.1%
Cc1ccc(Cn2c(CN3CCN(C(=O)c4ccco4)CC3)nc3c2c(=O)n(C)c(=O)n3C)cc1	-12%	-12	9%	4.9%
CCOC(=O)COc1ccccc1/C=N/Nc1nnc2c3ccccc3n(C)c2n1	x	x	0%	-4.7%
COc1ccc(-c2csc(=Nc3c(C)n(C)n(-c4ccccc4)c3=O)n2C(C)(C)C)cc1	-2%	1	17%	1.9%
CCOC(=O)c1cccc(NC(=O)CSc2nnnn2CC)c1	0%	6	-1%	-1.4%
Cc1ccc(S(=O)(=O)NCCC(=O)NC2CCCCCC2)cc1	x	x	-14%	-3.1%
COc1ccc(-n2c(O)c(Cc3ccccc3)c(=O)n3nc(-c4ccccc4)c(=O)cc23)cc1	-29%	2	-19%	-3.7%

The list goes on.
structure	miR-21 reporter	GLA inh pH 4.5	Rango dissoc inh	Rango complex inh
CC(Cc1cccs1)NC(=O)Nc1ccccc1 (stereo not drawn)	-30%	5	-16%	7.0%
CCCCCc1cc(=O)oc2c(C(CCN3CCCCC3)c3cc(OC)c(OC)c(OC)c3)c(OC)cc(OC)c12 (stereo not drawn)	27%	-11	-4%	0.4%
COc1ccc(CCNC(=O)CCn2c(SCC#N)nc3ccccc3c2=O)cc1OC	-9%	3	7%	5.1%
Cc1ccc(C(C(=O)NC(C)(C)C)N(Cc2ccco2)C(=O)Cn2nnc(-c3cccs3)n2)cc1 (stereo not drawn)	-6%	-2	-3%	1.4%
CC(C)NC(=O)Cn1c(SCC(=O)NC2CCCC2)nc2ccccc21	0%	x	2%	-2.7%
CCOC(=O)NN1C(=O)c2ccccc2NC1c1ccc(OC)cc1OC (stereo not drawn)	-2%	5	1%	1.1%
Cc1cccc(-c2nc3c(c(SCC(N)=O)n2)CCCC3)c1	-4%	-2	-11%	4.1%
COc1ccc(Nc2cc(C(=O)NCCCN3CCOCC3)c3ccccc3n2)cc1OC	6%	-4	-1%	0.1%
C=CCn1c2ccccc2c2n[nH]c(=S)nc21	-12%	x	-8%	-0.6%
CCCCCn1c(-c2ccco2)nc2nc3ccccc3nc21	4%	u	-15%	u
O=c1[nH]ncc(N2CCCCC2)c1Cl	0%	0	3%	1.7%
CC1CCCN(c2c([N+](=O)[O-])c(=O)oc3ccccc23)C1 (stereo not drawn)	1%	-5	-5%	5.7%
COc1ccc2nc3c(c(-c4ccccc4)c2c1)CCC3	-26%	2&-4	-9%	u
O=C(COC(=O)c1ccc(O)cc1O)NC1CC1	x	x	8%	-2.6%
CC(C)[C@@H]1CC[C@@H](C)C[C@H]1OC(=O)C[n+]1cc(-c2ccc(Cl)cc2)n2c1CCCCC2	u	-5	2%	0.2%
Cc1cc(C)c(S(=O)(=O)N2CCN(c3ccc([N+](=O)[O-])c(-n4nc(C)cc4C)c3)CC2)c(C)c1	1%	-13	0%	-0.4%
COc1ccc(CNC(=O)C2CCCN2S(=O)(=O)c2ccc(Cl)cc2)cc1 (stereo not drawn)	-7%	-5	10%	-0.5%
Nc1nc(SCC(=O)NCCCO)nc2sc3c(c12)CCC3	-11%	3	-8%	1.0%
Cc1ccccc1OCC(=O)Nc1ccc2c(c1)OCCO2	-76%	12	1%	-3.6%
O=C(Cn1nc(Cc2cccnc2)c2ccccc2c1=O)N1CCN(c2ccccn2)CC1	-8%	-2	-8%	2.9%

Carrying on.
structure	miR-21 reporter	GLA inh pH 4.5	Rango dissoc inh	Rango complex inh
COc1ccccc1C(=O)ON=C1c2ccccc2-c2ccccc21	-14%	-9	-3%	-3.6%
COc1ccc(CCN(C)C(=O)CN2C(=O)NC3(CCCc4ccccc43)C2=O)cc1OC (stereo not drawn)	x	x	-4%	0.3%
CC(C)c1cc(C(N)=O)c(NC(=O)c2cccc(COc3ccc(Br)cc3)c2)s1	-41%	-5	-3%	3.0%
CCCCc1ccc(NC(=S)N2CCN(c3ncccn3)CC2)cc1	-4%	-3	10%	0.0%
O=C(N/C(=C\c1cccc([N+](=O)[O-])c1)C(=O)N1CCOCC1)c1ccco1	3%	x	6%	-1.6%
Clc1ccc(CSc2nnc(-c3c[nH]c4ccccc34)o2)cc1	-4%	-23	0%	1.5%
Cc1ccccc1NC(=S)N(CCCN1CCOCC1)Cc1cccs1	-12%	-9	-1%	-1.0%
O=S(=O)(NCc1cccnc1)c1cccc2cccnc12	-1%	5	1%	-0.9%
CC(=O)Nc1cccc(N(C)S(C)(=O)=O)c1	0%	4	1%	1.7%
O=[N+]([O-])c1ncn(Cc2c(Cl)cccc2Cl)n1	26%	-7	9%	-1.0%
O=C(OCC12CC3CC(CC(C3)C1)C2)c1ccc(NCc2cc(O)ccc2O)cc1	x	x	2%	-0.1%
CC1OC(Oc2c(-c3cc(O)c(O)c(O)c3)oc3cc(O)cc(O)c3c2=O)C(O)C(O)C1O (stereo not drawn)	-2%	3	3%	0.4%
O=C(O)CC1(CC(=O)NCc2cccc(Cl)c2)CCCCC1	-3%	x	7%	-3.4%
Cc1ccc(C(=O)CSc2nnc(-c3cccnc3)n2N)cc1	18%	5	-10%	1.6%
CCCCN=C1NC(=O)C(CC(=O)NCCc2ccc(OC)cc2)S1 (stereo not drawn)	0%	4	-4%	3.6%
Cc1cc([N+](=O)[O-])nn1CC(=O)N/N=C/c1ccccc1F	1%	13	13%	-1.8%
CCCCCC(=O)NC(=S)Nc1cccc(C(C)=O)c1	-19%	7	0%	-0.5%
CC(C)c1ccc(NC(=S)NC2CC3C=CC2C3)cc1 (stereo not drawn)	-27%	-6	-18%	-3.1%
COC(=O)c1ccccc1S(=O)(=O)N(Cc1cc2cc3c(cc2[nH]c1=O)OCO3)C1CCCCC1	-6%	4	x	x
Cc1ccc(OC(C)C(=O)Nc2ccccc2C(=O)N2CCN(C)CC2)cc1 (stereo not drawn)	3%	x	5%	1.1%

Overlap with the part before: 2 compounds; new compounds follow.
structure	miR-21 reporter	GLA inh pH 4.5	Rango dissoc inh	Rango complex inh
COC(=O)c1ccccc1S(=O)(=O)N(Cc1cc2cc3c(cc2[nH]c1=O)OCO3)C1CCCCC1	-6%	4	x	x
Cc1ccc(OC(C)C(=O)Nc2ccccc2C(=O)N2CCN(C)CC2)cc1 (stereo not drawn)	3%	x	5%	1.1%
CC(C)(C)c1ccc(C(=O)NNC(=O)c2ccc(Cl)cc2)cc1	-18%	-6	-9%	0.4%
Cc1noc(C(=O)Nc2c(C)nn(Cc3ccccc3)c2C)c1Cl	4%	2	-16%	0.1%
COc1cc(C(C)=O)ccc1OCC(O)CN1CCN(c2ccccc2)CC1 (stereo not drawn)	-8%	x	1%	-0.5%
Cc1cc(-c2ccc(S(=O)(=O)N3CCN(C)CC3)s2)on1	-2%	x	13%	3.0%
Cn1c(CNc2ccccc2)nc2ccccc21	-49%	-2	-8%	-1.6%
CCOc1ccc(NC(=O)CC2S/C(=N/N=C3CCCCCC3)NC2=O)cc1 (stereo not drawn)	-4%	x	-10%	2.1%
COCCCNC(=S)NCCCNc1nc2cc3c(cc2cc1C#N)OCO3	-7%	18	u	u
Cc1nc(-c2ccccc2)sc1-c1nc(-c2ccccc2)ncc1S(=O)(=O)c1ccccc1	0%	-3	31%	0.1%
CCCCOc1ccc(NC(=O)C2OC3OC(C)(C)OC3C3OC(C)(C)OC23)cc1 (stereo not drawn)	-3%	-1	-2%	-0.6%
Cc1cc(=O)n(C)c(=O)n1CC(=O)N1CCCCCC1	1%	-10	6%	-5.4%
COc1ccc(C(=O)CCN2CCCC(C)C2)cc1 (stereo not drawn)	0%	x	-11%	0.0%
O=C(CCCC(=O)NCc1ccc(F)cc1)NCc1ccc(F)cc1	0%	7	9%	-1.7%
C[C@H](CO)N1C[C@H](C)[C@@H](CN(C)C(=O)Nc2ccccc2)Oc2c(NC(=O)NC3CCCCC3)cccc2C1=O	x	x	1%	-1.3%
Cc1cccc(OC(=O)n2c(=S)oc3cc(Cl)ccc32)c1	-3%	9	13%	-0.8%
CCOC(=O)c1c(C)c(C(=O)O)n(C)c1C	-3%	-14	4%	-0.9%
CC(C)c1cc(N=O)cc(C(C)C)c1O	x	x	16%	0.7%
CC(=O)Nc1nc(-c2cc([N+](=O)[O-])cs2)cs1	0%	4	-11%	1.3%
N#Cc1ccccc1NC(=O)CNc1cc(S(=O)(=O)N2CCOCC2)ccc1NCC1CCCO1 (stereo not drawn)	x	x	0%	u
CCCn1c(SCC(=O)Nc2ccc(OC)cc2)nnc1-c1ccncc1	-5%	-2	-4%	0.9%
COc1ccc(CNC(=O)C2CC(c3ccc(OC)cc3)=NO2)cc1 (stereo not drawn)	-2%	6	0%	-0.5%

(more compounds)
structure	miR-21 reporter	GLA inh pH 4.5	Rango dissoc inh	Rango complex inh
Cc1ccc(C(=O)COC(=O)c2cn(-c3ccccc3)nc2-c2ccccc2)cc1[N+](=O)[O-]	-8%	4	-1%	1.3%
COc1cccc(OC)c1NC(=O)C1CCCN1C(=O)Nc1cccc(Cl)c1 (stereo not drawn)	0%	x	8%	0.2%
C=CCNC(=O)N1CCCC(C(=O)c2cccc(Cl)c2)C1 (stereo not drawn)	1%	-4	-1%	3.3%
Cc1cc(Br)ccc1NC(=S)NCCc1ccccc1	0%	x	0%	-2.0%
CCOCCCNC(=O)c1ccc2c(c1)ncn2-c1cccc(C)c1	-6%	x	8%	-0.1%

These rows are one share of the data; the hit share may differ from the screen's.
